FGF22 binding: binders of recombinant human FGF22 by thermal shift | SYPRO orange fluorescence; percent of sucrose octasulfate shift, DMSO zero | actives 1.5% (n = 340,000) | Q9HCT0 | calls only at 9.99 µM;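 active = melting point raised past a set limit in the mean and every replicate; three in four hits are not shown here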
rRNA inh HTS: selective bacterial rRNA inhibition in E. coli. E. coli WT GFP vs humanized-ribosome RFP mutants, fluorescence, 24 h; hits give low values; DMSO median 0, no signal -100. GFP signal change (wild-type ribosome), % (test concentration not listed). actives 1.6% (n = 350,000). AID 720706;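 active = significant combined selectivity score with lowered wild-type GFP, culture density cut under 30%, mutant RFP and density less affected; inactive = any of these conditions unmet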; note: one replicate is shown; some compounds called inactive have numbers as strong as hits
HNF4A DNA FP: change in binding of human HNF4 alpha to DNA. HNF4a-FITC DNA binding, fluorescence polarization, 1 h. activity change, % at 10 µM. actives 0.3% (n = 360,000); in the data active = activity change above about 30%, passing the limit was not always enough;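 note: controls were the assay level and a saturating level of protein; the project sought stronger binding though the title names inhibitors; some compounds called inactive have numbers as strong as hits; positive values seem to mean higher polarization but the record does not say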
Target sequence (P41235 whole entry, looked up): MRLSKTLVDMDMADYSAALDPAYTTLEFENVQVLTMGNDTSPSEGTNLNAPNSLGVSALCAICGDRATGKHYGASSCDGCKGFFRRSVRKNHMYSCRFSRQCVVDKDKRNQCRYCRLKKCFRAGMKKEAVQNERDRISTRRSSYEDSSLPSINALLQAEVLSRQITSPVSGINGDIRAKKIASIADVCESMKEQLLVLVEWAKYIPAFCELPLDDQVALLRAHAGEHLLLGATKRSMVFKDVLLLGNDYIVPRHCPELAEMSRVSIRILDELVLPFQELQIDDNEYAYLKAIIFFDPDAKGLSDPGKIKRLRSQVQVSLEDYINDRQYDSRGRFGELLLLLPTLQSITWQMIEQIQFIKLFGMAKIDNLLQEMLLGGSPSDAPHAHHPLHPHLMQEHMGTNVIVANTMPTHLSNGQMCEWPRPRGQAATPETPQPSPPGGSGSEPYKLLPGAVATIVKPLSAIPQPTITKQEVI
B2AR ag: human beta-2 adrenergic receptor agonism by FAP; P07550; response, % (concentration not given with the values); actives 0.43% (n = 340,000); Am2.2-beta2AR cells, FAP receptor internalization, flow cytometry; reference of the scale not given here;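 active = response above a set limit, near 3 SD of response in nonfluorescent compounds, cut at about 42% in these data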;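 note: stock transfer was 100 nL into about 11 µL; a reference agonist was the positive control; negative values mostly stem from fluorescent compounds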
UCH37 inh: human UCH37 deubiquitinating enzyme inhibition | Q9Y5K5 | purified proteasome/UCH37, Ub-AMC cleavage fluorescence | inhibition, % (no concentration beside the values) | actives 0.33% (n = 330,000) | AID 588478;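 active = mean of two replicates above 20%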;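 note: 0% = compound-free wells with enzyme and 100% = wells lacking proteasome; stock transfer was 100 nL into about 20 µL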
Target sequence (Q9Y5K5 whole entry, looked up): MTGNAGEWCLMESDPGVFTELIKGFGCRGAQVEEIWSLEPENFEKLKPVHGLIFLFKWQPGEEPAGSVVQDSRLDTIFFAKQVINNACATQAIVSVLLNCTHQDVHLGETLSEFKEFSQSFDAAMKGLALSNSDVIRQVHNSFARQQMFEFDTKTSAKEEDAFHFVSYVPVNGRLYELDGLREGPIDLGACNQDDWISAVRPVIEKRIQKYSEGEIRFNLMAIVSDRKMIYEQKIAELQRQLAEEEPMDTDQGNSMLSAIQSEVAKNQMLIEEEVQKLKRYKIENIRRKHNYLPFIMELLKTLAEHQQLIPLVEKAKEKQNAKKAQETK
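Schedule: 30 min plus 25 min, room temperature / Material: human UCH37 within purified proteasomes / Technique: AMC fluorescence intensity at 355/460 nm / Buffer or medium: pH 7.4 Tris-HCl (50 mM) with ovalbumin, ATP-MgCl2, DTT / Controls: wells without proteasome as full block, compound-free enzyme plus substrate as uninhibited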
E coli growth: E. coli growth inhibition; Escherichia coli growth, OD600, 23 h; hits give low values; OD600 absorbance (test concentration not listed); actives 0.21% (n = 330,000); AID 1053175;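 active = OD600 absorbance below the run mean of sample wells minus 3.6 SD, in any replicate, cut at about 0.56 in these data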;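 note: stock transfer was 300 nL into about 60 µL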
ALR inh: human ALR oxidase inhibition via reduced H2O2 | P55789 | purified ALR, DTT oxidation, H2O2 HRP-luminol luminescence | inhibition, % (test concentration not listed) | actives 3.8% (n = 290,000) | AID 485317;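 active = mean and each replicate at 75% or more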;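 note: stock transfer was 7.5 nL into about 7.5 µL; 0% = neutral wells and 100% = wells with inactivated enzyme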
rRNA inh HTS OD600: further read-out of rRNA inh HTS, marked with its call; OD600 change, %; measured here: OD600 growth;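 optical density of the mix in the first replicate; 0 = DMSO median and -100 = no signal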
rRNA inh HTS RFP: second read-out of rRNA inh HTS, no call of its own (marks repeat the call); RFP signal change, %; measured here: RFP humanized mutant strains;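 first replicate; 0 = DMSO median and -100 = no signal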
The depositor's hits bear a star; i = inactive; x = no result given; & = joins results of further samples. Not all compounds are listed; count on the stated rates, not on these rows.

Codes: A = FGF22 binding; B = rRNA inh HTS; C = rRNA inh HTS OD600; D = rRNA inh HTS RFP; E = HNF4A DNA FP; F = B2AR ag; G = UCH37 inh; H = E coli growth; I = ALR inh
COc1ccc(NC2CCCN(C(=O)c3cc(CC(C)C)nc(N)n3)C2)cc1 (configuration not stated)
  A = i | B = 4 | C = 8 | D = -0.7 | E = -0.5 | F = -4 | G = -3.2 | H = 0.66 | I = 93*
CCN(CC(=O)Nc1cc(Cl)ccc1C)C(=O)c1ccc(=O)n(Cc2ccccc2)n1
  A = i | B = 2 | C = 12 | D = 0.7 | E = -1.7 | F = 1 | G = 5.3 | H = 0.72 | I = -13
NS(=O)(=O)c1ccc(NC2=CC(c3ccc([N+](=O)[O-])cc3)N(c3ccc(S(N)(=O)=O)cc3)C2=O)cc1 (configuration not stated)
  A = i | B = 4 | C = -1 | D = -1.1 | E = 4.1 | F = -11 | G = 3.8 | H = 0.67 | I = -1
Cc1cc(-c2ccc(N3C(=O)CCC3=O)c(C)c2)ccc1N1C(=O)CCC1=O
  A = x | B = x | C = x | D = x | E = -0.1 | F = -2 | G = -4.6 | H = 0.77 | I = 2
CCc1ccc(OCC(=O)O/N=C(\N)c2ccncc2)cc1
  A = i | B = -4 | C = -5 | D = -1.0 | E = 3.7 | F = -1 | G = -2.4 | H = 0.66 | I = -20
CCCCc1ccc(CC(=O)Nc2cc(S(=O)(=O)N3CCOCC3)ccc2O)cc1
  A = i | B = -8 | C = -6 | D = 3.9 | E = 2.5 | F = -4 | G = x | H = x | I = 5
CCOc1ccc(CCNC(=O)CSc2nnnn2C)cc1OCC
  A = i | B = 7 | C = 7 | D = 0.4 | E = -3.5 | F = -3 | G = -1.6 | H = 0.65 | I = -1
CCOC(=O)c1c(NC(=O)CSc2nnc(-c3cccnc3)o2)sc(C)c1C
  A = x | B = x | C = x | D = x | E = -1.5 | F = 5 | G = -1.1 | H = 0.8 | I = x
CCNc1[nH]c(=O)n(C)c(=O)c1N=O
  A = x | B = x | C = x | D = x | E = -0.2 | F = -5 | G = 6.0 | H = 0.67 | I = 0
COc1ccccc1Nc1ncc(-c2cccs2)s1
  A = x | B = x | C = x | D = x | E = 9.9 | F = 17 | G = 3.0 | H = 0.74 | I = -4
O=C(CN(C(=O)c1csnn1)c1ccccc1F)NCc1ccc2c(c1)OCO2
  A = i | B = 4 | C = 1 | D = -1.7 | E = -1.9 | F = -5 | G = 4.8 | H = 0.69 | I = x
Cc1cccc(N2CCN(C(=O)CSc3ccsc3[N+](=O)[O-])CC2C)c1 (configuration not stated)
  A = x | B = x | C = x | D = x | E = -3.1 | F = 6 | G = 4.0 | H = 0.69 | I = 53
CS(=O)(=O)Nc1ccc(C(=O)NCCC2=CCCCC2)cc1
  A = x | B = x | C = x | D = x | E = -0.7 | F = 1 | G = 3.7 | H = 0.66 | I = -3
Cc1ccc(Cn2nnnc2CN2CCC(NC(=O)C(C)(C)C)CC2)cc1
  A = i | B = -4 | C = -4 | D = -2.5 | E = -4.5 | F = -4 | G = 6.0 | H = 0.67 | I = -2
CN(C)C1=NC[C@H](Cc2ccccc2)N1CCc1ccc(F)cc1
  A = i | B = -1 | C = -9 | D = 5.0 | E = -0.6 | F = -1 | G = 1.0 | H = x | I = -10
N#Cc1c(-c2cccc(Br)c2)cc(-c2cccnc2)nc1N
  A = x | B = x | C = x | D = x | E = 3.0 | F = 9 | G = -314 | H = 0.7 | I = 2
Cc1cccc(NC(=O)CSc2nc3ccc(NC(=O)CSc4nnnn4-c4ccccc4)cc3s2)c1C
  A = x | B = x | C = x | D = x | E = x | F = x | G = -0.8 | H = 0.8 | I = -13
CN(CCc1ccccc1)C(=O)c1ccc(NC(=O)Cc2cccc(NC(=O)C3CCN(C(=O)C4CC4)CC3)c2)cc1
  A = i | B = x | C = x | D = x | E = -0.3 | F = 11 | G = 0.2 | H = 0.66 | I = x
O=C(CCCOc1ccc(Cl)cc1Cl)NCCc1ccccn1
  A = i | B = -2 | C = -11 | D = 0.5 | E = 4.3 | F = -5 | G = -0.6 | H = 0.66 | I = -4
O=C(CN(C1CCCCC1)S(=O)(=O)c1ccccc1)NCc1cccnc1
  A = x | B = x | C = x | D = x | E = -1.6 | F = -10 | G = 0.6 | H = 0.69 | I = -13
Cn1cc2cccc([N+](=O)[O-])c2n1
  A = i | B = 21 | C = 12 | D = 6.0 | E = -0.5 | F = -2 | G = 5.4 | H = 0.72 | I = -18
COc1ccc(Nc2ncc(C(=O)O)c3ccccc23)cc1
  A = x | B = x | C = x | D = x | E = 1.5 | F = 3 | G = 8.3 | H = 0.72 | I = -25
O=C(c1[nH]c(C(F)(F)F)nc1-c1ccccc1)N1CCc2ccccc2C1
  A = i | B = -14 | C = -3 | D = 2.9 | E = -0.1 | F = x | G = x | H = x | I = x
COc1ccc(N2CSC(=S)N(c3ccc(OC)cc3)C2)cc1
  A = i | B = 7 | C = 4 | D = -0.9 | E = 0.7 | F = x | G = x | H = x | I = x
COc1cc(Cl)c(NS(=O)(=O)c2ccc(-c3ccc(=O)[nH]n3)o2)c(OC)c1
  A = i | B = -3 | C = -8 | D = -1.2 | E = 1.2 | F = 4 | G = 3.5 | H = 0.66 | I = -11

Profiles, looked up by structure. Order of screens: FGF22 binding, rRNA inh HTS, rRNA inh HTS OD600, rRNA inh HTS RFP, HNF4A DNA FP, B2AR ag, UCH37 inh, E coli growth, ALR inh
`CCOc1ccc(CCNC(=O)CSc2nnnn2C)cc1OCC` across the screens: i, 7, 7, 0.4, -3.5, -3, -1.6, 0.65, -1
`COc1ccc(N2CSC(=S)N(c3ccc(OC)cc3)C2)cc1` across the screens: i, 7, 4, -0.9, 0.7, x, x, x, x

Continued.
Codes: A = FGF22 binding; B = rRNA inh HTS; C = rRNA inh HTS OD600; D = rRNA inh HTS RFP; E = HNF4A DNA FP; F = B2AR ag; G = UCH37 inh; H = E coli growth; I = ALR inh
Cc1ccccc1N1CC(O)(c2cccs2)[N+]2=C1CCCC2 (configuration not stated)
  A = i | B = 15 | C = 14 | D = 0.9 | E = -1.0 | F = -2 | G = 1.2 | H = 0.7 | I = -7
COc1cc(CCC(=O)N2CCN(c3ncccn3)CC2)cc(OC)c1OC
  A = i | B = 4 | C = 5 | D = -2.4 | E = 3.8 | F = -3 | G = -0.7 | H = 0.71 | I = -1
O=c1c(-c2ccc(O)cc2)coc2cc(OC3OC(CO)C(O)C(O)C3O)ccc12 (configuration not stated)
  A = i | B = 13 | C = 15 | D = -0.7 | E = -0.1 | F = -6 | G = 2.3 | H = 0.67 | I = 99*
Cc1ccc(C(C(=O)NC2CCCCC2)N(CC2CCCO2)C(=O)CNC(=O)c2ccco2)cc1 (configuration not stated)
  A = x | B = x | C = x | D = x | E = 1.0 | F = -9 | G = 2.1 | H = 0.69 | I = -2
CC1CCCCC1Nc1ncnc2sccc12 (configuration not stated)
  A = i | B = -15 | C = -13 | D = -4.6 | E = 2.9 | F = 5 | G = 0.1 | H = 0.65 | I = 1
COc1ccc(CNC(=O)C[C@@H]2CC[C@@H](NS(=O)(=O)c3cccc(OC)c3)[C@@H](CO)O2)cc1
  A = i | B = -1&6 | C = 0&8 | D = 0.0&4.5 | E = 1.9 | F = x | G = x | H = x | I = x

In another format: results already given.
O=c1c(-c2ccc(O)cc2)coc2cc(OC3OC(CO)C(O)C(O)C3O)ccc12 (configuration not stated)
  FGF22 binding = i
  rRNA inh HTS = 13
  rRNA inh HTS OD600 = 15
  rRNA inh HTS RFP = -0.7
  HNF4A DNA FP = -0.1
  B2AR ag = -6
  UCH37 inh = 2.3
  E coli growth = 0.67
  ALR inh = 99*

COc1ccc(CNC(=O)C[C@@H]2CC[C@@H](NS(=O)(=O)c3cccc(OC)c3)[C@@H](CO)O2)cc1
  FGF22 binding = i
  rRNA inh HTS = -1&6
  rRNA inh HTS OD600 = 0&8
  rRNA inh HTS RFP = 0.0&4.5
  HNF4A DNA FP = 1.9
  B2AR ag = x
  UCH37 inh = x
  E coli growth = x
  ALR inh = x

Cc1ccc(C(C(=O)NC2CCCCC2)N(CC2CCCO2)C(=O)CNC(=O)c2ccco2)cc1 (configuration not stated)
  FGF22 binding = x
  rRNA inh HTS = x
  rRNA inh HTS OD600 = x
  rRNA inh HTS RFP = x
  HNF4A DNA FP = 1.0
  B2AR ag = -9
  UCH37 inh = 2.1
  E coli growth = 0.69
  ALR inh = -2
